HIV TAR-Tat = TAR RNA-Tat peptide displacers, HIV-1, primary screen, biochemical, FRET, FAM/TAMRA-labeled Tat | AID 1259389, 2018 | HIV-1 TAR RNA, Tat peptide displacement FRET; hits give high values | hit rate 0.6% among 100,000 | z-score (concentration not given with the values);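 also: score is relative to mean and SD of negative controls; some compounds called inactive have numbers as strong as hits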
CDC25B CDK2 inh = primary biochemical HTRF screen for blockers of M-phase inducer phosphatase 2 binding to CDK2/cyclin A; P30305+P24941; hit rate 0.72% among 94,000; z-score (concentration not given with the values); HTRF CDC25B-CDK2/CyclinA binding, anti-His/anti-Flag; hits give high values;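 also: score is relative to mean and SD of negative controls; strong numbers were not always called active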
* marks the source's active call; other numbers are inactive results; . = not tested or not shown.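 The calls were made as follows: active = z-score from 3 up in half or more of its runs; inactive = the rest.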

SMILES | HIV TAR-Tat | CDC25B CDK2 inh
CCn1cc2nc(SC)n(Cc3ccccc3)c(=O)c2n1 | 0.69 | .
O=C(Nc1ncnc2sc3c(c12)CCC3)c1ccccc1 | . | 0.4
O=C(CCc1ccccc1)Nc1nn2c(-c3ccco3)nnc2s1 | 2 | 0.05
Cc1ccc2nc3c(cc(C#N)c(=O)n3-c3nccs3)c(=O)n2c1 | 2.3 | -0.81
CC(C)COc1ccc(-c2nn(-c3ccccc3)cc2CO)cc1 | 3.4 | -0.02
O=C(NC(c1ccccc1)c1cccnc1)C1CC1 (stereo unspecified) | 0.07 | 1.6
CC(C)c1ccc(-n2nnc(-c3nc(-c4ccccc4)no3)c2N)cc1 | 1.7 | .
O=C(CSc1nc2c(c(=O)[nH]1)CCC2)NCc1ccco1 | 2.5 | -1
O=C(O)c1cccc2ccccc12 | 0.88 | .
Nc1n[nH]c(CC(=O)NC2(C(=O)Nc3ccccc3)CCCCC2)n1 | . | -1.4
O=C(Nc1cccc(-c2nc3ccccc3[nH]2)c1)c1ccc2c(c1)OCCO2 | . | -1.3
CSc1nnc(NC(=O)Cc2coc3c(C)c(C)ccc23)s1 | 0.2 | -15
Cc1cc(C)nc(NS(=O)(=O)c2ccc(NS(=O)(=O)c3c(C)noc3C)cc2)n1 | . | 1.8
O=c1c2[nH]c3ccc(F)cc3c2ncn1CCN1CCN(Cc2ccccc2)CC1 | 1.8 | 0.06
CNS(=O)(=O)c1ccc([N+](=O)[O-])cc1 | . | 0.27
Cc1cccc(N(C)c2c(-c3ccc(C)c(C)c3)c(=O)c2=O)c1 | 0.37 | .
CC(C)c1ccc(S(=O)(=O)NCc2cccn2Cc2ccc(Cl)cc2)cc1 | 0.9 | .
O=C(O)CCCC(=O)Nc1nc2ccccc2s1 | 2.5 | -1.1
COc1ccc(-c2nc(CSc3nc4c(c(=O)[nH]3)CCCC4)c(C)o2)cc1 | 0.38 | -0.78
c1ccc(CSC2=NCCS2)cc1 | -0.31 | -0.47
COC(=O)c1c(SCC(=O)Nc2ccccc2)[nH]c2ccccc2c1=O | -0.34 | .
Cc1cc(C)c2[nH]c(CN(C)Cc3ccc(F)cc3)cc(=O)c2c1 | 0.72 | .
CN(C1CCCCC1)S(=O)(=O)c1cc(Br)cc2c1N(C(=O)C1CC1)CC2 | . | -1.2
CCOC(=O)CN1C(=O)C(O)(CC(=O)c2ccc(C)o2)c2ccccc21 (stereo unspecified) | -0.25 | -0.36

Two entries picked at random from those above, as already listed:
SMILES | HIV TAR-Tat | CDC25B CDK2 inh
O=C(O)CCCC(=O)Nc1nc2ccccc2s1 | 2.5 | -1.1
CC(C)c1ccc(S(=O)(=O)NCc2cccn2Cc2ccc(Cl)cc2)cc1 | 0.9 | .

(listing goes on)
SMILES | HIV TAR-Tat | CDC25B CDK2 inh
CN1CCN(C2CCN(C(=O)CCC3CCCC3)CC2)CC1 | . | 1.7
O=C(NCC1CCCO1)C1CCC(Cn2c(=S)[nH]c3ccsc3c2=O)CC1 (stereo unspecified) | . | -0.28
Cn1c(=O)n(C)c2cc(N3CCOCC3)c(NC(=O)c3cccs3)cc21 | 1.6 | 1
COC(=O)c1sccc1-n1cc(C#N)c(=O)n(Cc2ccccc2)c1=O | . | -3.3
CCCCOC(=O)c1cn(CC)c2nc(C)ccc2c1=O | 0.52 | .
O=C(Nc1ccccn1)c1c(-c2ccccc2)c(-c2ccccc2)n[nH]c1=O | 1.6 | -2.2
CCCNC(=O)Cn1cnc2onc(C(=O)OCC)c2c1=O | 1.2 | .
Cc1ccccc1S(=O)(=O)Nc1cccc(CCc2nc3ccccc3n2C)c1 | 2.3 | .
O=C(O)CSc1nc2c(c(=O)[nH]1)CCCC2 | . | -0.84
Cc1cc2c(cc1S(=O)(=O)N(CC(C)C)CC(C)C)OCC(=O)N2 | 1.4 | .
CCOC(=O)c1c(C)oc2ncnc(NC3CCCc4ccccc43)c12 (stereo unspecified) | -0.09 | .
Cn1ncc2c(Nc3ccc(S(N)(=O)=O)cc3)ncnc21 | 1.3 | .
Cc1cn(C2CCC(CO)O2)c(=O)[nH]c1=O (stereo unspecified) | . | -1.8
O=C1CCN(Cc2ccccc2)C(=O)N1c1ccc2c(c1)CCO2 | . | -1.4
Cc1ccccc1-c1noc2ncnc(NCc3ccc(F)cc3)c12 | -0.03 | .
COc1ccc(C2CC(c3ccccc3Cl)Nc3ncnn32)cc1OC (stereo unspecified) | 0.74 | -0.79
O=C1c2ccccc2/C(=N/O)C1[N+](=O)[O-] (stereo unspecified) | . | -1.2
NNC(=O)c1cc2cc(F)ccc2[nH]1 | . | -0.93
O=C(Nc1nnc(SCc2ccccc2)s1)C1COc2ccccc2C1 (stereo unspecified) | 1.6 | -0.94
COc1ccc(Nc2c(S(=O)(=O)c3ccccc3)cnc3ccccc23)cc1OC | 1.1 | -0.19
Cc1nccn1-c1c2c(c(C#N)c3nc4ccccc4n13)CCC2 | -2.7 | -1.6
Cc1ccc(NS(=O)(=O)c2ccc3c(c2)S(=O)(=O)N=CN3)cc1C | -0.59 | .
Cc1ccc(C)c(CN2CCCN(Cc3cccc(F)c3)S2(=O)=O)c1 | -0.6 | .
O=C(Cn1c(=O)c2cccn2c2ccc(F)cc21)N1CCN(c2ccccc2)CC1 | 1 | .
O=C(Nc1noc2ccccc12)c1cccc(F)c1 | 0.79 | -1
CCN(CC)c1nc2ccccc2n2cnnc12 | -0.63 | -0.46
COC(=O)Cn1c(CCS(=O)(=O)c2ccc(Cl)cc2)nc2ccccc21 | . | -2.1
COC(=O)c1sccc1Oc1ccc(C(F)(F)F)cc1NC(=O)Nc1cc(C)cc(C)c1 | . | -0.68
c1ccc(CN2c3ncnn3C(c3ccccc3)CC2c2cccs2)cc1 (stereo unspecified) | 0.12 | -0.55
Cc1nn(C)cc1CNC(=O)c1cc2n(n1)C(C(F)(F)F)CC(c1ccc3c(c1)OCO3)N2 (stereo unspecified) | 0.01 | -1.3
CC1(C)CC(Nc2ncnc3sc4c(c23)CCCC4)CC(C)(C)N1 | 0.88 | -2
Nc1cc(=O)[nH]c2nnc(SCc3ccccc3Cl)n12 | 0.69 | -0.13
O=C(CSc1nc2ccccc2nc1N1CCCC1)Nc1ccc(F)cc1 | 2.5 | -0.72
COc1ccc(CNCc2cc(OC)ccc2OC)cc1 | 0.64 | -1.8
Cc1nn(CCCC(=O)N2CCc3ccccc3C2)c(C)c1[N+](=O)[O-] | 0.29 | -1.5
Cc1ccc(/C(O)=C2\C(=O)C(=O)N(CCC(=O)O)C2c2ccc(Cl)cc2)cc1 (stereo unspecified) | . | -0.75
O=S(=O)(c1ccc(F)cc1)n1nc(-c2ccco2)nc1NCc1cccc(Br)c1 | 2.3 | -1.9
Cc1nn(CCCC(=O)NC(C)c2ccc3c(c2)OCCO3)c(=O)c2cc3occc3n12 (stereo unspecified) | 0.15 | 0.24
COC(=O)C1=C(C)NC2=C(C(=O)CC(c3ccc(OC)c(OC)c3)C2)C1c1ccc(SC)cc1 (stereo unspecified) | -0.04 | -1.5
C[C@@H]1OC(O[C@H]2[C@H](O)[C@@H](O)[C@H](OC[C@H]3O[C@@H](OC(=O)[C@]45CCC(C)(C)CC4C4=CCC6[C@@]7(C)CC[C@H](OC8OC[C@H](O)[C@H](O)[C@H]8OC8O[C@@H](C)[C@H](O)[C@@H](O)[C@H]8O)[C@@](C)(CO)C7CC[C@@]6(C)[C@]4(C)CC5)[C@H](O)[C@@H](O)[C@@H]3O)O[C@@H]2CO)[C@H](O)[C@H](O)[C@H]1O (stereo partly specified) | 4.2 | .
Cn1c(=O)c2c(SCC(=O)NC3CCCC3)nc(-c3ccc(F)cc3)nc2n(C)c1=O | . | -2.2
Clc1ccc2sc(Oc3cccc(N4CCOCC4)c3)nc2c1 | . | -0.74
Cc1cc(C)c2c(n1)SCC(=O)N2CC(=O)NC(C)C | 1.2 | -1.2
S=C1NCc2ccsc2S1 | . | -0.12
COc1ccc(NC(=O)CSCc2cc(=O)n3oc(C)cc3n2)cc1 | -0.74 | .
O=S(=O)(c1ccc(-c2cc(C(F)(F)F)on2)s1)N(Cc1ccco1)C1CCCC1 | 1.7 | .
CC1(C)CC(=O)C(C=NCCCn2ccnc2)=C(O)C1 | . | -2.3
CCOc1ccc(-c2cc(C(=O)N/N=C/c3cccs3)[nH]n2)cc1 | . | -1.8

Of the compounds above, 13 have fluorine:
SMILES | HIV TAR-Tat | CDC25B CDK2 inh
O=c1c2[nH]c3ccc(F)cc3c2ncn1CCN1CCN(Cc2ccccc2)CC1 | 1.8 | 0.06
Cc1cc(C)c2[nH]c(CN(C)Cc3ccc(F)cc3)cc(=O)c2c1 | 0.72 | .
Cc1ccccc1-c1noc2ncnc(NCc3ccc(F)cc3)c12 | -0.03 | .
NNC(=O)c1cc2cc(F)ccc2[nH]1 | . | -0.93
Cc1ccc(C)c(CN2CCCN(Cc3cccc(F)c3)S2(=O)=O)c1 | -0.6 | .
O=C(Cn1c(=O)c2cccn2c2ccc(F)cc21)N1CCN(c2ccccc2)CC1 | 1 | .
O=C(Nc1noc2ccccc12)c1cccc(F)c1 | 0.79 | -1
COC(=O)c1sccc1Oc1ccc(C(F)(F)F)cc1NC(=O)Nc1cc(C)cc(C)c1 | . | -0.68
Cc1nn(C)cc1CNC(=O)c1cc2n(n1)C(C(F)(F)F)CC(c1ccc3c(c1)OCO3)N2 (stereo unspecified) | 0.01 | -1.3
O=C(CSc1nc2ccccc2nc1N1CCCC1)Nc1ccc(F)cc1 | 2.5 | -0.72
O=S(=O)(c1ccc(F)cc1)n1nc(-c2ccco2)nc1NCc1cccc(Br)c1 | 2.3 | -1.9
Cn1c(=O)c2c(SCC(=O)NC3CCCC3)nc(-c3ccc(F)cc3)nc2n(C)c1=O | . | -2.2
O=S(=O)(c1ccc(-c2cc(C(F)(F)F)on2)s1)N(Cc1ccco1)C1CCCC1 | 1.7 | .

Further compounds:
SMILES | HIV TAR-Tat | CDC25B CDK2 inh
c1ccc(C2OCc3nonc3CO2)cc1 | . | -1.9
O=C1N(Cc2ccccc2)c2ccccc2S(=O)(=O)N1c1cccc(Cl)c1 | 0.83 | .
Cc1cc(O)c(-c2ccn[nH]2)c(=O)o1 | . | -0.81
COc1cc2c(=O)nc3n(c2cc1OC)C(c1ccccc1)N=C(N)N3 (stereo unspecified) | 3.6 | 1.8
Cc1nn(-c2ccc(F)cc2)c(-n2cccc2)c1C(=O)NC1CCC(C)CC1 (stereo unspecified) | 1.8 | .
CCCCSc1nc2c(c(=O)[nH]1)C(c1ccccc1C)C(C(=O)OC)=C(C)N2 (stereo unspecified) | 0.38 | 0.45
CC1CCC(NC(=O)C2CCN(C(=O)c3ccc4c(c3)nnn4C3CCCC3)CC2)CC1 (stereo unspecified) | -0.37 | .
CCC(CC)c1nn2cc(-c3ccc(Cl)cc3)nc2s1 | 1.1 | 0.5
O=C(c1ccc(Cl)cc1)c1cnc(-c2ccccc2)s1 | . | -3.1
O=C1c2cccc3c(Cl)ccc(c23)C(=O)N1c1ccccc1 | 1.7 | -2.5
COC(=O)c1ccc(C2c3c(oc4ccccc4c3=O)C(=O)N2c2ccccn2)cc1 (stereo unspecified) | 0.2 | -0.97
COC(=O)c1sc2cccc(F)c2c1S(=O)(=O)N1CCN(c2ccccc2)CC1 | 1.2 | .
CCOC(=O)c1sc(NC(=O)c2nn(CC)cc2Br)c(C#N)c1C | . | -0.75
COc1cccc(NC(=O)Nc2nc3c(s2)CCCCC3)c1 | 0.76 | .
O=C(O)c1nccnc1C(=O)N1CCN(C(c2ccccc2)c2ccccc2)CC1 | . | -1.8
CCCn1cc(S(=O)(=O)c2ccc(C)c(C)c2)c(=O)c2cc(F)c(N3CCN(CC)CC3)cc21 | -0.04 | .
CCc1cc(N2CCN(c3ccccn3)CC2)n2ncnc2n1 | -0.74 | -1.4
COc1ccc(-c2noc(CSc3nnc(-c4ccccc4)n3C)n2)c(OC)c1 | 1.7 | -2
O=C(O)c1ccc(Cn2c(=O)[nH]c3ccsc3c2=O)cc1 | . | 1.5
CCOC(=O)c1cn[nH]c1S(=O)(=O)Nc1cc(C)cc(C)c1 | 0.76 | .
CSc1ccc(C2Nc3ccc4ncccc4c3C3=C2C(=O)CCC3)cc1 (stereo unspecified) | 0.13 | -1.6
COc1ccc(C(=O)NC(Nc2ccccn2)(C(F)(F)F)C(F)(F)F)cc1 | . | 0.23
CC(C)c1ccc(-c2c(NCCN3CCCCC3C)c(=O)c2=O)cc1 (stereo unspecified) | -0.38 | .
Cc1ccc2cc3c(nc2c1)N(C(=O)c1ccccc1)CC3 | -1 | -1.1
CCCc1nn2c(=O)cc(CSc3n[nH]c(-c4cccc(C)c4)n3)nc2s1 | -0.36 | .
CCOC(=O)Cn1c(=O)c(C(=O)NC(=O)OCC)cn(Cc2cccs2)c1=O | . | -2.3
CCOC(=O)c1nc(-c2nn(-c3ccccc3)c(=O)n(C)c2=O)no1 | -0.3 | -0.79
Fc1ccc(-c2nsc3c(N4CCNCC4)ncnc23)cc1 | 2.2 | -2.1
CCN1CCN(CCNc2nc(-c3ccccc3)no2)CC1 | 1.7 | .
CCn1nccc1C1CCCN1C(=O)Nc1ccc(Cl)cc1 (stereo unspecified) | 0.3 | -1.7
CSc1nc(N/C=C(\C#N)S(=O)(=O)c2ccccc2Cl)nc(C2CC2)n1 | . | 1.4
CCCC(O)c1nc2ccccc2n1Cc1ccccc1F (stereo unspecified) | 1.4 | -1.2
O=c1c2cc3c(cc2nc2sc(NCc4ccccc4)nn12)OCO3 | 2 | -1.5
CCCC(=O)Nc1nnc(SCc2cc(=O)n3nc(C4CC4)sc3n2)s1 | 2.1 | .
O=S(=O)(NCc1ccc2c(c1)OCO2)c1ccccc1 | 1.3 | -0.25
CCOc1ccc(Nc2nc(N3CCOCC3)nc(N)c2[N+](=O)[O-])cc1 | 0.21 | .
Cc1nn(C)c(C)c1CNC(=O)Nc1ccc2c(c1)OCCO2 | 2 | .
CC(C)OCCCNC(=O)c1noc2c1CCc1sccc1-2 | 0.09 | .
COc1ccc(C2C(C(=O)OC(C)C)=C(C)NC3=C2C(=O)CC(c2ccccc2)C3)cc1OC (stereo unspecified) | 2.2 | -1.9
Cc1scc(CN2CCN(c3ccc(F)cc3)CC2)c1C | 2 | .
